CBX7 inh: CBX7 inhibition, primary AlphaScreen; 66,000 compounds, 1.1% hits; AID 1224903; AlphaScreen His6-CBX7 / biotin-H3K27me3 peptide binding; stronger effect = lower value; normalised signal (fraction of DMSO) (concentration not given with the values); O95931; in the data active = normalised signal below about 0.5;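 also: 100 nL library stock added to about 20 µL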
Target sequence (O95931 whole entry, looked up): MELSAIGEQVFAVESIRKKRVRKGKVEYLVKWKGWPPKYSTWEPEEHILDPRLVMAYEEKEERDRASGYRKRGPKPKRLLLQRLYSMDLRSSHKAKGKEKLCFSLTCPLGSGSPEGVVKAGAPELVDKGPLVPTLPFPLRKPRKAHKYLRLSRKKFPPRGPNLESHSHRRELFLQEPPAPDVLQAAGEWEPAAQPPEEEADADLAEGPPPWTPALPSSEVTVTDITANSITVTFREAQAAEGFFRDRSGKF
CBX7 inh z-score: further read-out of CBX7 inh, marked with its call; z-score; measured here: z-score of CBX7 signal; some inactives read as strong as hits; reference of the scale not given here;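 same signal on another scale; lower means less binding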
Active calls of the source: *; & = joins results of further samples. The list is partial; the hit share may differ from the screen's.

SMILES	CBX7 inh	CBX7 inh z-score
c1ccn2c(Nc3ccc4c(c3)OCCO4)c(-c3ccc(N4CCOCC4)cc3)nc2c1	1	-0.078
Cc1ccc(-c2noc(CCc3ccccc3)n2)cc1	1.4	14
C=CCn1c(C(Cc2ccccc2)NC(=O)c2cccs2)nc2ccccc21 (stereo not drawn)	0.85	-2.7
Cc1ccc(CNC(=O)c2cc(=O)[nH]c3ccc(S(=O)(=O)N4CCCCCC4)cc23)cc1	1.1	1.4
CCN1C(=O)CSc2ccc(C(=O)NCc3c(F)cc(F)cc3F)cc21	1.1	2.8
CCOc1ccc(Nc2cc(C(=O)NCCc3ccc(OC)c(OC)c3)c3ccccc3n2)cc1	0.94	-1.2
CCOC(=O)c1c(NC(=O)c2cccc(Cl)c2)sc2c1CCC(C)C2 (stereo not drawn)	1.4	7
FC(F)(F)c1nc(Nc2cccc(Cl)c2)sc1-c1ccc(Cl)cc1	1.1	2.5
COc1ccc(OC)c(CCNc2ccc3nncn3n2)c1	0.99	-0.21
Cc1ccc(NC(=O)CCc2nnc3ccc(NCc4ccc(F)cc4)nn23)cc1	1	0.097
COc1ccccc1Nc1cc(C(=O)NCC2CCCO2)c2ccccc2n1 (stereo not drawn)	1.1	1.6
COc1ccc(-c2noc(-c3ccc(OC)cc3OC)n2)cc1	1.2	5.3
COc1ccc(CNc2oc(COc3ccccc3F)nc2C#N)cc1	0.61	-7.2
CCC(=O)N1CCc2cc(Br)cc(S(=O)(=O)CCC(=O)Nc3nccs3)c21	1.1	1.1
Cc1ccc(NC(=O)Nc2ccc3c(c2)N(C)C(=O)CS3)cc1	1.1	2
O=C(O)c1cccc(NC(=O)c2cccc(S(=O)(=O)N3CCOCC3)c2)c1	1	0.003
CCCCN(C)C(=O)C1CCCN(S(=O)(=O)c2c(C)noc2/C=C/c2cccs2)C1 (stereo not drawn)	0.95	-0.95
COc1cccc(NC(=O)CSc2nnc(COc3ccc4c(c3)CCCC4)o2)c1	1.2	2.2
Cc1ccc(-c2nn(C)c(=O)c3ccccc23)cc1S(=O)(=O)N1CCN(Cc2ccccc2)CC1	1	0.33
Cc1cc(N2CCN(Cc3ccc4c(c3)OCO4)CC2)n2nc(C)c(-c3ccc(Cl)cc3)c2n1	1.3	3
COc1ccc(CNC(=O)c2cc(-c3cc(OC)ccc3OC)on2)cc1	1.1	1.1
CCCN(C(=O)c1cc2c(s1)-c1ccccc1OC2)c1ccc(OCC)cc1	0.88	-2.8
COc1ccc(NC(=O)CSc2nc3ccccc3nc2Cc2ccc(F)cc2)cc1Cl	1	0.19
Cc1nn(Cc2ccccc2Cl)c(C)c1NC(=O)c1cc(-c2cccs2)on1	0.97	-0.31
COc1ccc(C2C(C(=O)Nc3cc(C)ccn3)=C(C)NC3=C2C(=O)CC(C)(C)C3)c(OC)c1 (stereo not drawn)	1.1	0.16

Compound profiles, from the list above. Order of screens: CBX7 inh, CBX7 inh z-score
O=C(O)c1cccc(NC(=O)c2cccc(S(=O)(=O)N3CCOCC3)c2)c1 is listed with 1, 0.003
Cc1ccc(CNC(=O)c2cc(=O)[nH]c3ccc(S(=O)(=O)N4CCCCCC4)cc23)cc1 is listed with 1.1, 1.4
CCOc1ccc(Nc2cc(C(=O)NCCc3ccc(OC)c(OC)c3)c3ccccc3n2)cc1 is listed with 0.94, -1.2
COc1ccccc1Nc1cc(C(=O)NCC2CCCO2)c2ccccc2n1 (stereo not drawn) is listed with 1.1, 1.6
CCCCN(C)C(=O)C1CCCN(S(=O)(=O)c2c(C)noc2/C=C/c2cccs2)C1 (stereo not drawn) is listed with 0.95, -0.95

Carrying on:
SMILES	CBX7 inh	CBX7 inh z-score
Cc1cccc(N2CC(c3nc4ccccc4n3CCOc3ccccc3)CC2=O)c1C (stereo not drawn)	0.95	-0.34
CCc1cccc(C)c1NC(=O)CS(=O)(=O)Cc1nc(-c2cccc(OC)c2)oc1C	1	0.16
CCCCOc1cccc(C(=O)Nc2ccc3oc(-c4ccc(F)cc4)nc3c2)c1	1.1	2.4
c1ccc(Sc2c(-c3ccccc3)nc3ncccn23)cc1	1.2	1.8
O=C1CCc2cc(S(=O)(=O)NCCC(=O)NC3CCN(Cc4ccccc4)CC3)ccc2N1	1.1	1.9
COc1ccc(NC(=O)Cn2nc(Cc3cccnc3)c3ccccc3c2=O)cc1	0.99	-0.2
O=C(COc1ccccc1)Nc1c(C(=O)Nc2cccc(F)c2)oc2ccccc12	0.96	-0.55
CCOC(=O)C1CCN(c2nc3ccccc3n2Cc2ccccc2F)CC1	0.97	-0.85
CCOC(=O)c1cnc2ccc(Cl)cc2c1Nc1ccc(N2CCOCC2)cc1	0.58	-12
COC(=O)c1ccc2nc(NC(=O)CSc3nc4ccccc4[nH]3)sc2c1	0.85	-0.57
CCOC(=O)C1CCN(c2c(N3CCN(c4ccccc4)CC3)c(=O)c2=O)CC1	0.94	-1.6
CCOc1ccc(-c2nc(CSCC(=O)N3CCCCCC3)c(C)o2)cc1	0.76	-3.4
COc1ccc(N(CC(=O)NCc2cccc(OC)c2)S(=O)(=O)c2c(C)nn(C)c2C)cc1	1.1	0.7
O=C(CN1C(=O)CSc2ccc(S(=O)(=O)N3CCCCC3)cc21)NCc1cccnc1	1	-0.05
COc1cc(OC)cc(-c2cc3nc(C)c(CCC(=O)Nc4ccc5c(c4)OCO5)c(C)n3n2)c1	0.97	-0.54
COc1cc(C)nc(N(CC(N)=O)S(=O)(=O)c2ccccc2)n1	1.1	2
COCCn1c(SCC(=O)N2CCOCC2)nnc1-c1c[nH]c2ccccc12	1.2	1.1
CCOc1ccc(C(=O)Nc2ccc(O)c(-c3nc4ccccc4o3)c2)cc1	0.97	-0.55
O=C(NCCCN1CCCCC1)C1C2C=CC3(CN(Cc4ccccc4Cl)C(=O)C13)O2 (stereo not drawn)	1.1	3.8
Cc1nc2c(C(=O)NCCc3ccccc3)cnn2c(C)c1Cc1ccc(F)cc1	1	0.36
Cc1ccc(OCc2nc(-c3ccc(Cl)cc3)no2)c(Br)c1	1.3	0.4
Cc1cc(N2CCCCC2)nc2ccc(NC(=O)CCC(=O)NC3CCCC3)cc12	1	0.024
Cc1ccc(Cc2nc3cc(C)c(C)cc3[nH]c2=O)c(C)c1	1	0.99
CCOCCCNC(=O)CCn1nc(-c2ccccc2)ccc1=O	1	0.82
Fc1ccccc1-c1nc(NC2CCCCC2)c2ccccc2n1	0.88	-3.4

In the list so far, these contain an NH in an aromatic ring.
SMILES	CBX7 inh	CBX7 inh z-score
Cc1ccc(CNC(=O)c2cc(=O)[nH]c3ccc(S(=O)(=O)N4CCCCCC4)cc23)cc1	1.1	1.4
COC(=O)c1ccc2nc(NC(=O)CSc3nc4ccccc4[nH]3)sc2c1	0.85	-0.57
COCCn1c(SCC(=O)N2CCOCC2)nnc1-c1c[nH]c2ccccc12	1.2	1.1
Cc1ccc(Cc2nc3cc(C)c(C)cc3[nH]c2=O)c(C)c1	1	0.99

Remaining list, next part
SMILES	CBX7 inh	CBX7 inh z-score
c1ccc(Nc2c(-c3ccccc3)nc3nc[nH]n23)cc1	0.98	-0.51
Cc1cccc(NC(=O)CSc2nccn2-c2ccc(Cl)cc2)c1C	0.44*	-2*
O=c1nc(N2CCOCC2)c(Cl)cn1-c1nc(-c2ccccc2)oc1-c1ccccc1	0.86	-0.55
Cc1cccc(OCCn2c(C)nc3ccccc32)c1	1.2	1.4
CCCc1cc(C(=O)Nc2ccc(OC)cc2OC)no1	1.2	0.27
CCC(=O)N1CCc2cc(Br)cc(S(=O)(=O)NCCCN3CCCCC3)c21	1	1.6
N#Cc1nc(-c2ccccc2)oc1NCCN1CCCCC1	0.98	-0.018
NC(=O)C1CCN(c2cc(=O)n(-c3ccccc3Cl)c(=O)[nH]2)CC1	0.93	-1.4
O=C(CSc1nnc(-c2cccs2)n1-c1ccc(F)cc1)Nc1ccccc1	1.1	1.4
CC1CCN(C(=O)c2nn3c(c2Cl)NC(c2cccs2)CC3C(F)(F)F)CC1 (stereo not drawn)	1.1	0.77
Cc1cccc(N2CCN(S(=O)(=O)c3cccnc3)CC2)c1C	0.94	-1.3
COc1cccc(N2C(=O)CC(N3CCN(C)CC3)C2=O)c1 (stereo not drawn)	1.1	0.74
O=C(COc1ccccc1CNc1ccc2oc(-c3ccccc3)nc2c1)N1CCOCC1	1.3&1.1	8.4&1.8
CCNC(=O)C1CCN(S(=O)(=O)c2ccc(C)cc2)CC1	0.85	-2.7
Cc1ccc(NC(=O)C2(N(C)C(=O)Cc3nc(N)n[nH]3)CCCCC2)cc1	0.79	-3
CCCc1ccc(-c2ccc(-c3ccc(C#N)cc3)cc2)nc1	1.2	1.6
O=C(Cn1c2c(c(-c3ccccc3Cl)cc1=O)CCC2)NCc1ccccc1	0.73	-3.7
CCOc1ccccc1NC(=O)CSc1nccn1-c1cccc(C)c1	0.76	-0.24
O=C(Nc1ccccc1-c1nc2ccccc2s1)c1ccc(S(=O)(=O)N2CCCCCC2)cc1	1.3	2
COc1ccccc1Nc1ncc(C(=O)NCCCN2CC(C)CC(C)C2)c2ccccc12 (stereo not drawn)	1.2	1.8
Cc1cc(N2C(=O)c3nccnc3C2=O)ccc1Br	1	0.46
CCOc1ccc(S(=O)(=O)Nc2ccc3oc4c(c3c2)CCC(C)C4)cc1 (stereo not drawn)	0.97	-0.9
COc1cccc(-c2cc(C(F)(F)F)nc(-n3cc(C)cn3)n2)c1	1.1	1.6
Cc1nnc(NC(=O)c2c(-c3c(Cl)cccc3Cl)noc2C)s1	0.95	-0.91
COc1ccc(C2CC(=O)N(CC(=O)Nc3cccc(Cl)c3)c3ccccc3S2)cc1 (stereo not drawn)	0.79	-3.5
Following part.
SMILES	CBX7 inh	CBX7 inh z-score
Cc1ccccc1NC(=O)CSc1nnc(Cc2cc(=O)[nH]c(=O)[nH]2)n1-c1ccc(Cl)cc1	0.95	-1.4
Cc1onc(-c2ccccc2Cl)c1C(=O)N1CCN(c2ccccc2)CC1	0.96	-0.58
CC(=O)Nc1cc(-c2nn(C)c(=O)c3ccccc23)ccc1N1CCCCC1	0.98	-0.83
CCCc1sc(Nc2ccc(Cl)cc2)nc1-c1ccccc1	0.98	-0.35
COc1ccc(OCC(=O)Nc2cc(-c3nc4ccccc4o3)ccc2OC)cc1	1	0.019
CC(=O)N1CCC(N(C(=O)Nc2ccc(C)c(C)c2)C2CCC(C)CC2)CC1 (stereo not drawn)	1	0.0055
O=C(Nc1cccnc1)c1cc2nc3c(c(C(F)(F)F)n2n1)CCc1ccccc1-3	1.2	1.8
Cc1cc(C)cc(-n2nnnc2SCC(=O)Nc2ccc(OC(F)(F)F)cc2)c1	1	0.22
CCOc1ccc(NC(=O)C(=O)NCCc2ccc(OC)c(OC)c2)cc1	1	0.22
CCC(=O)N1c2ccc(S(=O)(=O)Nc3ccc(C)cc3C)cc2CC1C (stereo not drawn)	0.8	-0.8
c1cc(NCc2ccc3c(c2)OCO3)cc(-c2nc3ccccc3o2)c1	1.1	1.3
CCCCNC(=O)CCN1C(=O)COc2ccc(C)cc21	1.1	1.5
Fc1cccc(-c2nc(-c3cccs3)c(-c3cccs3)[nH]2)c1	1	0.01
CCOC(=O)c1ccc(NC(=O)Cn2nnc(-c3ccc(OC)cc3)n2)cc1	1.1	2.1
O=C(CSc1nnc(Cc2cc(=O)[nH]c(=O)[nH]2)n1-c1ccc(Cl)cc1)NCc1ccccc1	0.9	-1.5
Cn1cnc(S(=O)(=O)Nc2cccc(Cl)c2)c1	1	1.4
O=S(=O)(c1cccc(Cl)c1)N(CCCN1CCOCC1)Cc1cccs1	0.87	-1.4
COc1ccccc1NC(=O)Nc1ccc2snnc2c1	1	1.4
Cc1[nH]c2ccc(OC(F)(F)F)cc2c1CCNC(=O)c1cccnc1Cl	0.94	-1.3
CCOC(=O)c1cccc(NC(=O)CCc2nc(-c3ccccc3F)no2)c1	1.1	2.7
COc1ccc(C)cc1NS(=O)(=O)c1ccc2c(c1)CCN2C(=O)C1CCC1	1.2	5.1
Cc1ccnc(NC(=O)c2cc3c(-c4ccccc4F)nn(C)c3s2)c1	0.94	-0.086
C=CCN1C(=O)c2ccccc2Sc2ccc(C(=O)NCc3ccccn3)cc21	0.97	-0.66
CCOc1ccc(C2C(=O)N(C3CCCCC3)CC(=O)N2Cc2ccc(F)cc2)cc1OC (stereo not drawn)	0.96	-0.99
CCCOc1ccc(-c2nc(-c3ccc(C)cc3)no2)cc1	1.2	7.3
(list continues)
SMILES	CBX7 inh	CBX7 inh z-score
Cc1ccc(NS(=O)(=O)c2ccc3c(c2)CCN3C(=O)C2CC2)c(Cl)c1	0.98	-0.63
COc1ccc(OC)c(-c2nnc(SCC(=O)N3CCCc4ccccc43)o2)c1	0.98	-0.4
O=C(Nc1ccc2nc(-c3ccc(Cl)cc3)[nH]c2c1)C1CCCCC1	1	0.49
Cc1ccccc1Cn1c(CCCNC(=O)c2cccs2)nc2ccccc21	0.9	-1.6
Cc1ccc(-c2nc(CSCC(=O)NCc3ccccc3Cl)c(C)o2)cc1	0.92	-1.6
CC(CCc1ccccc1)NC(=O)Cc1ccc(NC2=NC3CS(=O)(=O)CC3S2)cc1 (stereo not drawn)	0.92	-0.92
O=c1[nH]c2ccc(S(=O)(=O)Nc3ccc(F)cc3Cl)cc2[nH]c1=O	1	0.22
COc1ccc(C2CC(C(F)(F)F)n3nc(C(=O)NC(C)(C)C)cc3N2)cc1 (stereo not drawn)	0.95	-1
O=C(CCN1C(=O)COc2ccccc21)NCCCN1CCCCC1	1.1	1.9
Cc1ccc(NC(=O)CSc2nnc(Cc3cc(=O)[nH]c(=O)[nH]3)n2-c2ccccc2)c(C)c1	1.1	0.25
COc1cc2[nH]c(=O)n(CCC(=O)N3CCN(C)CC3)c(=O)c2cc1OC	1	0.6

Screening data deposited in PubChem by several laboratories.
